NPYLR7 agonist: agonists of mosquito NPYLR7 receptor, primary screen, cell-based, Aedes aegypti, calcium fluorescence, mosquito biting behavior | HEK293T NPYLR7/Galpha15, GCaMP6s calcium fluorescence | hit rate 0.15% among 270,000 | activation, % at 10 µM | Aedes aegypti neuropeptide Y-like receptor 7 (NPYLR7); in the data active = activation above about 40%;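 note: 0% = vehicle and 100% = reference agonist at the receptor; some compounds past the cut are filed as inactive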
NPYLR7 agonist max-min: second read-out of NPYLR7 agonist, no call of its own (marks repeat the call); activation, %; measured here: Max-Min RFU normalised activation; some inactives read as strong as hits;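 span of the calcium signal over five minutes; 0% = vehicle and 100% = native peptide agonist; compound fluorescence can raise it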
* hit, by the source's call; & = joins results of further samples.

SMILES | NPYLR7 agonist | NPYLR7 agonist max-min
C[C@]12CC[C@H](O)C[C@@H]1CC[C@@H]1[C@@H]2CC[C@]2(C)C(=O)CC[C@@H]12 | -3 | -3
O=C(OC1CCOC1=O)c1cccs1 (stereo unspecified) | 13 | 7
CC(Cc1ccc(C(F)(F)F)cc1)NC(=O)NC1CCOCC1 (stereo unspecified) | -2 | -4
CCOC(=O)c1c(C)n(Cc2ccccc2)c2ccc(OC(=O)c3ccccc3Cl)cc12 | 3 | 2
N=P(NS(=O)(=O)c1ccccc1)(c1ccccc1)c1ccccc1 | -6 | -7
Cc1ccnc(CC(C)N(C)Cc2ccc(CN(C)S(C)(=O)=O)o2)c1 (stereo unspecified) | -6 | 3
COCCNC(=O)c1nn(Cc2ccc(C(=O)N3CCOCC3)cc2)c2ccc(OC)cc12 | 20 | 21
CC(=O)c1ccc(S(=O)(=O)N2CCN(CCOC(c3ccccc3)c3ccc(F)c(F)c3)CC2)cc1 (stereo unspecified) | 18 | 27
CN1CC(=O)N(Cc2ccc(Cn3nc(C(=O)N4CCN(C(=O)C5CCCO5)CC4)c4ccccc43)cc2)c2ccccc2C1=O (stereo unspecified) | -4 | -9
COc1ccc(CCN)cc1OC | -2 | -3
Cc1cc(CN2CCNCC2)on1 | 5 | 7
CC(=O)O[C@H]1C[C@H](O[C@H]2[C@@H](O)C[C@H](O[C@H]3[C@@H](O)C[C@H](O[C@H]4CC[C@@]5(C)C(CCC6C5C[C@@H](O)[C@]5(C)[C@@H](C7=CC(=O)OC7)CC[C@]65O)C4)O[C@@H]3C)O[C@@H]2C)O[C@H](C)[C@H]1O[C@@H]1O[C@H](CO)[C@@H](O)[C@H](O)[C@H]1O (stereo partly specified) | 7 | -9
N#Cc1cc(F)c(N2CCOCC2)cc1Cl | 2 | -2
COc1ccccc1C=C1C(=O)NC(=S)NC1=O | 1 | -6
CC(C)Oc1cccc(C(=O)C2CCCN(CC(=O)NC3CC3)C2)c1 (stereo unspecified) | -1 | 4
COCCCNC(=O)CN1C(=O)CSC(c2cccc(C)c2)c2c(-c3ccccc3)nn(-c3ccccc3Cl)c21 (stereo unspecified) | -5 | 0
CN1CCC(O)(c2ccc(F)cc2)C(C(=O)c2ccc(F)cc2)C1 (stereo unspecified) | -9 | -19
CN1C(=O)C2(CCN(Cc3nc(-c4ccco4)no3)CC2)c2ccccc21 | -4 | -5
O=S(=O)(c1ccc(F)cc1)N1CCN(CCOC(c2ccccc2)c2ccccc2)CC1 | -4 | 8
CC(=O)OCc1ccc(CN2CCN(CCOC(c3ccccc3)c3cccc(C(F)(F)F)c3)CC2)o1 (stereo unspecified) | 15 | 27
N#Cc1ccc(NC(=O)C2CCN(C3=NS(=O)(=O)c4ccccc43)CC2)cc1Cl | 4 | 1
CC(=O)OCC1=C(C(=O)O)N2C(=O)[C@@H](NC(=O)CCCC(N)C(=O)O)C2SC1 (stereo partly specified) | -4&-11 | -10&-15
FC(F)(F)c1nnc2n1N1C(=CSC1c1cccnc1)S2 (stereo unspecified) | 1 | -2
CCN1CCCC1CNC(=O)C(O)(c1ccccc1)c1ccccc1 (stereo unspecified) | -16 | -23
COc1ccc(N(C)C(=O)c2ccc(Cn3nc(C(=O)NCc4cnc(C)cn4)c4ccccc43)cc2)cc1 | -1 | 23
OC(Cc1ccncc1)C(Cl)(Cl)Cl (stereo unspecified) | -2 | -11
N#Cc1cc2c(=O)n3ccccc3nc2n(Cc2ccco2)c1=O | 2 | -2
COc1cc(Br)c(CCN)cc1OC | 3 | 8
O=C(c1ncc(F)cc1F)N1CC[C@H]2CC[C@@H](C1)N2 | 2 | 0
COC(=O)c1ccc(COC(CN2CCN(C(=O)Cc3ccc(F)cc3)CC2)c2cccc(OC)c2)cc1 (stereo unspecified) | -9 | -4
C=CCC1(C(C)CCC)C(=O)NC(=S)NC1=O (stereo unspecified) | -6 | -11
O=C(Cc1ccc(F)cc1)N1CCC(C(=O)O)(c2ccccc2)CC1 | -27 | -27
CCOc1cccc(C(C)NC(=O)N2CCC3(CC2)OCCO3)c1 (stereo unspecified) | 0 | -1
O=C(Nc1nncs1)c1nn(Cc2cccc(Oc3ccccc3)c2)c2ccccc12 | 18 | 16
COC(=O)CC1=C(C(=O)OC)C2(C(=O)N1)c1ccccc1OC(=N)C2C#N (stereo unspecified) | -7 | -13
CN1Cc2ccccc2[C@@H]2c3cccc4[nH]cc(c34)C[C@H]21 | 11 | 1
Cc1cccnc1-n1cc(C2=CCN(CC(=O)Nc3cnn(C)c3)CC2)cn1 | 2 | 1
CCCCOC(=O)N1C[C@H](C(=O)OCC)[C@H]2c3ccccc3N(CC3CC3)C(=O)[C@]21C | 3 | 12
Cc1ccc(-c2nccn2CCc2cnc[nH]2)c(C)c1F | 13 | 10
Cc1noc(C)c1NC(=O)NC1C2COCC1CN(CC1CC1)C2 (stereo unspecified) | 17 | 7
O=S(=O)(c1cc(Cl)cc(Cl)c1O)N1CCN(CCOC(c2ccccc2)c2cccc(C(F)(F)F)c2)CC1 (stereo unspecified) | 6 | 4
Brc1ccc(C2CC(c3cccnc3)=Nc3nnnn32)cc1 (stereo unspecified) | 3 | 3
COc1ccc(C2NCc3ccc4c(c3-n3cccc32)OCO4)cc1O (stereo unspecified) | 2 | 2
OC1CCN(C2CCNCC2)CC1 | 4 | 3
Cc1cnc(CN(C)CCc2ccc(Br)cc2)cn1 | 3 | 1
Oc1ccc(N2CCNCC2)cc1 | 12 | 10
CN(CCN1CCCCCC1)C(=O)Cc1ccc2c(c1)NC(=O)CO2 | -3 | -4
CCOC(=O)c1ccc(-c2ccc(C=C3C(=O)N(C)C(=O)N(C)C3=O)o2)cc1 | -11 | -14
CCC/C=C/c1cccc(N2CCNCC2)n1 | 3 | -2
COc1ccccc1Nc1nnc(CC(=O)N2CCN(C3CCCCC3)CC2)s1 | 21 | 14
New compounds follow
SMILES | NPYLR7 agonist | NPYLR7 agonist max-min
NCC(O)c1cc(O)c(O)cc1F (stereo unspecified) | 7 | -9
Cc1ccc(-n2c(=S)[nH]c3ccccc3c2=O)cc1F | -4 | -12
O=C1c2ccccc2-c2onc3c(Cl)cc(N4CC4)c1c23 | 23 | 15
NCC1(c2ccc3c(c2)OCCO3)CCOCC1 | 15 | 6
C=CCN1CC[C@]23c4c5ccc(O)c4O[C@H]2/C(=N\NC(=O)c2ccccc2)CC[C@@]3(O)[C@H]1C5 | 0 | -4
CNC(=O)N(C)c1nnc(C(C)(C)C)s1 | -12 | -16
FC(F)(F)c1cccc(C(OCCN2CCN(Cc3ccncc3)CC2)c2ccccc2)c1 (stereo unspecified) | 12 | 5
Cc1ccc2c(c1)CCCN2C(=O)CN1CC=C(c2cnn(C)c2)CC1 | 11 | 8
Cn1c(O)c(C=Nc2ncccn2)c(=O)n(C)c1=O | 3 | 3
COc1ccccc1CC(C)N(C)C(=O)CN1CCCN(C)CC1 (stereo unspecified) | 6 | 4
Cc1cccc(C2SCC(=O)N(CC(=O)O)c3c2c(C(C)(C)C)nn3-c2cccc(F)c2)c1 (stereo unspecified) | -5 | -7
CN(c1cccnn1)C1CCNCC1 | 7 | 6
CCOC(=O)[C@@H]1[C@@H](c2ccccc2)CN2CCN(C(=O)c3ocnc3C)C[C@H]12 | 7 | 10
Clc1cccc(C2NCCc3[nH]cnc32)c1Cl (stereo unspecified) | -3 | -6
CCC(CC)C(=O)Nc1ccc2[nH]cc(CCN3CCCC3)c2c1 | 16 | 31
CCNC(=O)C(C1CCCC1)N1CCN(C(=O)Cc2ccc(OC)cc2)CC1 (stereo unspecified) | 11 | 21
N#CC(C#N)=Cc1ccc(-c2ccccc2)cc1 | -2 | -2
CCCC12CN3CC(C)(CN(C1)C3(C)C)C2=O | 1 | 9
C=CCOC(=O)C1=C(C)OC(=N)C(C#N)C12C(=O)Nc1ccc(Cl)cc12 (stereo unspecified) | -2 | 0
CC(C)NC(=O)CNC(C)Cn1cncn1 (stereo unspecified) | 16 | 14

Part of the list above in order of heavy-atom count, smallest number first:
SMILES | NPYLR7 agonist | NPYLR7 agonist max-min
COc1ccc(CCN)cc1OC | -2 | -3
COc1cc(Br)c(CCN)cc1OC | 3 | 8
N#Cc1cc(F)c(N2CCOCC2)cc1Cl | 2 | -2
CCCC12CN3CC(C)(CN(C1)C3(C)C)C2=O | 1 | 9
Cn1c(O)c(C=Nc2ncccn2)c(=O)n(C)c1=O | 3 | 3
Cc1ccc(-n2c(=S)[nH]c3ccccc3c2=O)cc1F | -4 | -12
CN1Cc2ccccc2[C@@H]2c3cccc4[nH]cc(c34)C[C@H]21 | 11 | 1
CN1CCC(O)(c2ccc(F)cc2)C(C(=O)c2ccc(F)cc2)C1 (stereo unspecified) | -9 | -19
Cc1ccc2c(c1)CCCN2C(=O)CN1CC=C(c2cnn(C)c2)CC1 | 11 | 8
COC(=O)CC1=C(C(=O)OC)C2(C(=O)N1)c1ccccc1OC(=N)C2C#N (stereo unspecified) | -7 | -13
COc1ccccc1Nc1nnc(CC(=O)N2CCN(C3CCCCC3)CC2)s1 | 21 | 14
CCCCOC(=O)N1C[C@H](C(=O)OCC)[C@H]2c3ccccc3N(CC3CC3)C(=O)[C@]21C | 3 | 12
CC(=O)OCc1ccc(CN2CCN(CCOC(c3ccccc3)c3cccc(C(F)(F)F)c3)CC2)o1 (stereo unspecified) | 15 | 27

Following part
SMILES | NPYLR7 agonist | NPYLR7 agonist max-min
COc1ccc(N2C(=O)CC(=O)NC2=S)cc1 | -15 | -20
COc1ccc(C=C2C(=O)NC(=S)NC2=O)cc1O | -2 | -10
Cc1ccc(C(O)(C(=O)NNC(=O)CN2CCN(C)CC2)c2ccc(C)cc2)cc1 | 2 | -7
Fc1cc(Br)ccc1C1NCCc2[nH]cnc21 (stereo unspecified) | -2 | -6
N#CC1C(=N)N2Cc3ccccc3CC2C1=O (stereo unspecified) | 0 | 15
Cc1ccccc1N1CCN(C2CCCN(C(=O)COc3ccc(Cl)cc3)C2)CC1 (stereo unspecified) | 0 | 3
Cc1ccc(CC(C)NC(=O)CCN2C(=O)CCC2=O)c(C)c1 (stereo unspecified) | 8 | 10
O=C(c1cc(Cl)c[nH]1)C(Cl)(Cl)Cl | -1 | -4
O=C(c1cn(Cc2ccccc2C(F)(F)F)nn1)N1C[C@H]2C[C@@H](C1)c1cccc(=O)n1C2 | 3 | 1
NC(Cc1ccccc1)c1csc(Nc2ccccn2)n1 (stereo unspecified) | -1 | -2
Cc1ccc(C(=O)C(C)(C)NO)cc1 | -5 | -11
O=C1OC2(CCN(Cc3cc(=O)[nH]c(C4CC4)n3)CC2)c2ccccc21 | 3 | 7
CO[C@H]1CC=C2CCN3CCC4=C(CC(=O)OC4)[C@]23C1 | -2 | -21
CCc1[nH]c2c(CNC(=O)CN3CCCC3=O)cc(F)cc2c1C | 8 | 4
COc1cc(-n2c(=S)[nH]c3ccccc3c2=O)c(Cl)cc1Cl | 1 | -5
O=C1CSC2(CCNCC2)N1c1ccc(Cl)cc1 | 14 | 6
O=C(O)[C@@H]1CCN1 | 5 | -10
COc1ccccc1C1SCC(=O)N(CC(=O)NCC2CCCO2)c2c1c(C(C)(C)C)nn2C (stereo unspecified) | 8 | 16
CC(Cc1ccc(OCC(=O)O)cc1)NCC(O)c1cccc(Cl)c1 (stereo unspecified) | 7 | -10
Cc1cccc(Cn2cccc(C(=O)Nc3cc(C)on3)c2=O)c1 | 15 | 7
N#CC(C#N)=NNc1ccc(F)cc1 | 15 | 22
COc1ccccc1[C@H]1CN(C(=O)c2ocnc2C)[C@@H]2C3CCN(CC3)[C@H]12 | 3 | 2
Cc1cccc(C)c1OP(N)(=O)OCC(F)(F)F (stereo unspecified) | 6 | 11
Cc1cc(N2C[C@H](c3cc(F)cc(F)c3)[C@@H]3[C@H]2C2CCN3CC2)nc(N)n1 | 6 | 4
COc1ccc2c(c1)[C@]13CCCC[C@H]1[C@H](C2)N(C)CC3 | -7 | -11
C=CCOc1ccc(Cl)cc1C=C1C(=O)N(C)C(=O)N(C)C1=O | 5 | 3
CCC(C)c1ccc(-n2c(CC(C)CC(C)(C)C)nc3ccccc3c2=O)cc1 (stereo unspecified) | 5 | 3
CC(Cc1c(F)cccc1F)NCc1cccc(O)c1 (stereo unspecified) | -2 | -2
CSc1ccccc1C(=O)C1CCCN(Cc2ccc(C)s2)C1 (stereo unspecified) | -18 | -14
Cn1c(CCCC(=O)O)nc2cc(N(CCCl)CCCl)ccc21 | -6 | -12
Cc1[nH]c(=O)[nH]c(=O)c1CN1C[C@@H](c2ccccc2)[C@@H]2[C@H]1C1CCN2CC1 | -1 | -3
CN(C)c1ccc(P(=S)(N2CCCCC2)N2CCCCC2)cc1 | -4 | -3
CCCCc1noc(CN2CCC(c3c[nH]c4ccccc34)CC2)n1 | -3 | -4
CC(C)CC(C)NC(=O)C1CC=CCC1C(=O)N1CCC(C#N)(c2ccccc2)CC1 (stereo unspecified) | -10 | -18
COc1cc2c(c(OC)c1OC)-c1ccc(O)c(=O)cc1[C@@H](NC(C)=O)CC2 | -9 | -14
C=CCN1C(=O)NC(=O)/C(=C/c2ccc(OCC(=O)O)c(OC)c2)C1=O | 2 | 2
NC(=O)c1ccccc1NC(=O)c1cccn(Cc2c(F)cccc2Cl)c1=O | 8 | 0
Cc1cc(Cc2c(O)[nH]c(=S)[nH]c2=O)ccc1OC(C)C | 3 | 2
Cc1cc(C)cc(-n2c(C)cc(C=C3C(=O)NC(=S)NC3=O)c2C)c1 | -11 | -15
CN1C(=O)C(=Cc2ccc(OCc3ccccc3)cc2)C(=O)N(C)C1=O | -15 | -22
Clc1cccc2sc(N3CCNCC3)nc12 | -1 | -4
C=CCNC(=O)N1[C@@H]2C(=O)N(C)c3ccccc3[C@@H]2[C@@H](C(=O)OCC)[C@H]1c1ccccc1 | -3 | 1
CCOC(=O)C1=C(c2ccccc2)OC(=N)C(C(=O)OCCOC)C12C(=O)Nc1ccc(Br)cc12 (stereo unspecified) | -21 | -11

Fetched by structure from the list above (two):
SMILES | NPYLR7 agonist | NPYLR7 agonist max-min
COc1cc2c(c(OC)c1OC)-c1ccc(O)c(=O)cc1[C@@H](NC(C)=O)CC2 | -9 | -14
CN(C)c1ccc(P(=S)(N2CCCCC2)N2CCCCC2)cc1 | -4 | -3

From PubChem BioAssay

Some of the compounds tested; rates above refer to the full screens.
